High-throughput results (PubChem BioAssay)
2A StopGo: FMDV 2A StopGo reporter, luciferase signal | human cells with a luciferase reporter of 2A StopGo recoding; control for the full effect not named in the record | 410,000 tested, 1.2% active | Potency, µM (titrated, usually from 57.9 µM), without a hit: top-dose signal change, negative = less light | AID 1159524; active = well fitted falling curve with a large enough effect; inconclusive = small, poorly fitted or top-dose-only effect; inactive = no such curve, though single readings can be large or run the other way; tested in HEK293T cells; also: % is scaled to controls: 0 for no effect and ±100 for the full control effect; nearly all actives have a fitted effect of over 45% in size; luciferase light after 4 h
Marburg entry inh: Marburg virus entry inhibition | Marburg virus pseudotyped entry inhibition, cell reporter; control for the full effect not named in the record; about a third of the inactives were read at about 46 µM | Potency, µM (series often up to 37.8 µM), for inactives: top-dose activity change, negative = inhibition, most hits filed as inhibitors | 300,000 tested, 1.8% active; active = well fitted inhibition curve with a large enough effect; inconclusive = small, poorly fitted or top-dose-only effect, or effect the other way; inactive = flat fitted curve, though single readings scatter; tested in HEK293 cells; about a fifth of its hits are not listed in these tables; also: % is scaled to controls: 0 for no effect and ±100 for the full control effect; luciferase read-out
NS1 function inh: influenza NS1 inhibition | Potency, µM (series often up to 46.1 µM), for inactives: top-dose activity, positive = more growth | S. cerevisiae slowed by influenza A NS1, growth recovery by OD600 | 270,000 tested, 0.4% active; active means well fitted rising curve with a large enough effect; inconclusive means small, poorly fitted or top-dose-only effect; inactive means no such curve, though single readings can be large or run the other way; also: nearly all actives have a fitted effect of over 50% in size
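Read-out: OD600 growth recovery of NS1-expressing budding yeast. Cells grown overnight at 30C in -URA glucose medium, washed, resuspended and diluted 1:100 in 2% galactose assay medium, pH 6.0. Same strain lacking NS1 served as positive control.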
Cruzain inh noDet: cruzain (T. cruzi) inhibition without detergent; P25779; purified cruzain, Z-FR-AMC fluorescence, no detergent; Potency, µM, for inactives: max response, negative = inhibition, most hits filed as inhibitors; 200,000 tested, 2.3% active; AID 1476;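 also: plate controls were enzyme without inhibitor for no effect and buffer without enzyme for full effect; nearly all actives have a fitted effect of over 40% in size; top concentration of the series not given in the record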
Target sequence (P25779 123-467 limits assumed): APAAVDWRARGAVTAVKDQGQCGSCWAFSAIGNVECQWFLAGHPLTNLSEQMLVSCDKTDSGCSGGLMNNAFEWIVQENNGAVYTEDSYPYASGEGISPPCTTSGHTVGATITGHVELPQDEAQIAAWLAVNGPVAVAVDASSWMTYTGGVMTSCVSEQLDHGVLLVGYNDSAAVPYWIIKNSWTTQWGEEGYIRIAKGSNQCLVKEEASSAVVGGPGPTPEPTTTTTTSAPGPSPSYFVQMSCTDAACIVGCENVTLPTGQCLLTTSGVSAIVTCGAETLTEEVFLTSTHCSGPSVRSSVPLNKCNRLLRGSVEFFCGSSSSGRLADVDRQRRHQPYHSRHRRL
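Detergent-free condition (0.00005% Triton X-100) in acetate buffer pH 5.5 with DTT. 1.5 nM enzyme and compound were pre-mixed 15 min, then 2 uM Z-FR-AMC substrate added; reaction progress from fluorescence change between first and third reads (60 s).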
SARS PLP yeast: blocks SARS-CoV papain-like protease in a yeast assay | S. cerevisiae expressing SARS-CoV PLpro, growth rescue; control for the full effect not named in the record | 330,000 tested, 0.19% active | Potency, µM (series often up to 32.9 µM), for the others: at the top dose activity, positive = growth rescue; active means well fitted rising curve with a large enough effect; inconclusive means small, poorly fitted or top-dose-only effect; inactive means no such curve, though single readings can be large or run the other way; also: 0% is about no effect; nearly all actives have a fitted effect of over 55% in size; growth read by luminescence after 48 h
LASV entry inh: Lassa virus entry inhibition; 300,000 tested, 1.2% active; Potency, µM (titrated, usually from 37.9 µM), inactives show at the top dose activity change, negative = inhibition, most hits filed as inhibitors; Lassa virus pseudotype entry inhibition, cell reporter; control for the full effect not named in the record; AID 540256; active means well fitted inhibition curve with a large enough effect; inconclusive means small, poorly fitted or top-dose-only effect, or effect the other way; inactive means flat fitted curve, though single readings scatter; tested in HEK293 cells; also: % is scaled to controls: 0 for no effect and ±100 for the full control effect; nearly all actives have a fitted effect of over 50% in size; luciferase read-out
Cruzain inh Det: blocks cruzain activity in presence of Triton detergent; purified cruzain, Z-FR-AMC fluorescence, 0.01% Triton; Potency, µM, without a hit: max response, negative = inhibition, usual class: inhibitors; 200,000 tested, 0.43% active;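 also: plate controls were neutral wells for no effect and buffer without enzyme for full effect; nearly all actives have a fitted effect of over 40% in size; top concentration of the series not given in the record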
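Detergent-containing run (0.01% Triton X-100) in acetate buffer pH 5.5 with 5 mM DTT: enzyme at 1.5 nM final, 15 min compound preincubation at room temperature, then 2 uM Z-FR-AMC substrate. Activity taken as 60 s fluorescence increase at 360/450 nm.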
RE007 growth inh: less growth of the S. pombe RE007 Vpr strain; Potency, µM (titrated, usually from 92.2 µM), inactives show top-dose activity change, negative = less growth; S. pombe RE007 Vpr strain, BacTiter-Glo ATP luminescence, 24 h; control for the full effect not named in the record; 360,000 tested, 0.21% active; AID 651644; active = well fitted falling curve with a large enough effect; inconclusive = small, poorly fitted or top-dose-only effect; inactive = no such curve, though single readings can be large or run the other way;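 also: % is scaled to controls: 0 for no effect and ±100 for the full control effect; nearly all actives have a fitted effect of over 50% in size; the assay follows cell death caused by Vpr and the record does not say whether a fall means rescue or toxicity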
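Fission yeast RE007 carrying one integrated HIV-1 vpr copy, seeded at OD 0.01 in PMG+AL medium with 23 nL pinned compound. Grown 24 h at 30 degrees; viability read by BacTiter-Glo luminescence after 5 min.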
* marks the source's active call; other numbers are inactive results; ? = inconclusive; . = not tested or not shown; & = joins results of further samples; [ ] = dose if it differs, or a comment. Unless noted, calls follow the shape of the dose curve; as a rule, active = well fitted curve in the direction sought with a large enough effect; inconclusive = small, poorly fitted or top-dose-only effect, or another doubt; inactive = no such curve, though single readings can be large; an effect the other way counts as inactive or inconclusive. Potency is read from the fitted curve at half-maximal effect.

canonical_smiles | 2A StopGo | Marburg entry inh | NS1 function inh | Cruzain inh noDet | SARS PLP yeast | LASV entry inh | Cruzain inh Det | RE007 growth inh
Cc1cc(C)c(NC(=O)Cn2c(=O)n(CC3CCCO3)c(=O)c3ccccc32)c(C)c1 (stereo not given) | -3% | -11%[46.1 µM] | . | 5% | . | -9%[46.1 µM] | 0.5% | .
O=C(Nc1ccccc1)c1ccccc1OCc1ccc(S(=O)(=O)N2CCOCC2)cc1 | -9% | -7%&-7%[46.1 µM] | . | . | -6% | 25%[46.1 µM] | . | 3%
CC(C)CNC(=O)COC(=O)CCC(=O)c1cccs1 | 2% | -6% | 1% | 5% | 12% | . | 2.1% | -3%
CCC1c2ccccc2C(=O)C1C(N)=O (stereo not given) | 1% | 4% | . | . | . | 4%[46.1 µM] | . | -1%
CCC(=O)C1=C(c2ccccc2)N(C(=O)CC)n2c(nnc2-c2ccccc2)S1 | -11% | . | . | -7% | . | -11%[46.1 µM] | 0.0% | .
CCC1(OC(=O)c2ccccc2)CC(C)N(C)CC1C (stereo not given) | -15% | -13%[46.1 µM] | 13% | . | -1% | -27%[46.1 µM] | . | 1%
COc1cccc(CNC(=O)COC(=O)c2cccc(S(=O)(=O)N3CCN(C(C)=O)CC3)c2)c1 | -10% | -15% | . | . | -3% | 19% | . | -2%
Cc1cccc(Cn2c(C)c(CNC3CCCCC3)c(C(=O)O)c2C)c1 | -18% | 4%[46.1 µM] | . | 4% | . | 18%[46.1 µM] | -1.7% | .
CCn1nnc(NC(=O)CSc2ccc(Cl)cc2)n1 | 9% | 8% | -17% | -12% | -3% | 0% | -5.0% | -3%
Nn1c(SCC(=O)NC2CCS(=O)(=O)C2)nnc1-c1cccs1 (stereo not given) | 2% | . | 5% | . | 0% | . | . | 13%
CCN(CC)S(=O)(=O)c1ccc(C(=O)OCC(=O)NC2CCCC2)cc1 | -5% | -12%[46.1 µM] | 2% | . | 1% | -12%[46.1 µM] | . | -5%
O=C(O)c1ccc(S(=O)(=O)N(Cc2ccccc2)C2CCCCC2)cc1 | -18% | . | 3% | . | 0% | . | . | 0%
Cc1[nH]n(C)c(=O)c1C(=O)c1c(-c2c(Cl)cccc2Cl)noc1C | ? | -24%[46.1 µM] | -2% | . | 0% | -5% | . | 3%
CCN(CC)CCCNC(=O)c1c(O)c2ccccc2n(Cc2ccccc2)c1=O | -17% | 14µM* | -13% | -20% | 5% | ? | -6.8% | 0%
Cc1ccc(C(=O)Oc2cccc(-n3cnnn3)c2)cc1 | 17% | 1%[46.1 µM] | -15% | . | 0% | -30%[46.1 µM] | . | -1%
O=C(NCC(=O)N(Cc1ccccc1)C(C(=O)NCC1CCCO1)c1ccccc1)c1ccco1 (stereo not given) | -11% | -19%[46.1 µM] | -2% | . | 0% | . | . | -2%
CC(CNC(=O)CCc1nnc(CCC2CCCCC2)o1)c1ccccc1 (stereo not given) | 21% | ? | -3% | . | -1% | ? | . | 1%
CCN(C(=O)C(=O)Nc1ccc2nc3n(c(=O)c2c1)CCCCC3)c1ccc(F)cc1 | -8% | -26%[46.1 µM] | . | 7% | . | -10%[46.1 µM] | -2.2% | .
CCn1cc(/C=C(\NC(=O)c2ccccc2OC)C(=O)N2CCN(C)CC2)c2ccccc21 | -2% | . | 13% | . | 0% | . | . | 4%
COc1ccc(N2CCN(C(=O)CSc3nc(-c4ccc(C(C)C)cc4)no3)CC2)cc1 | 3% | . | . | -15% | . | 15%[46.1 µM] | 0.9% | .
Cc1cccc(CN2CCN(c3ncccn3)CC2)c1 | -18% | -19% | 3% | . | 1% | -1% | . | 13%
Cc1ccc(OCCOc2cccc(/C=N/NC(N)=O)c2)cc1 | 37%[activator] | ? | 2% | . | -3% | 28%[46.1 µM] | . | 6%
COc1cccc(C=C2SC(=S)NC2=O)c1 | 14% | 1% | . | . | . | 0%[46.1 µM] | . | 2%
CCOC(=O)c1cccc(NC(=O)CN(c2ccc(OC)cc2)S(=O)(=O)c2c(C)noc2C)c1 | ? | ? | -12% | 22% | -13% | -11% | -3.3% | 14%
CSc1nnc(N(CCC#N)CCC#N)s1 | -20% | 9%&9%[46.1 µM] | 8% | -4% | 1% | -4% | 11% | 4%

Filtered by structure, those above with a thiophene ring, fused or not (2)
canonical_smiles | 2A StopGo | Marburg entry inh | NS1 function inh | Cruzain inh noDet | SARS PLP yeast | LASV entry inh | Cruzain inh Det | RE007 growth inh
CC(C)CNC(=O)COC(=O)CCC(=O)c1cccs1 | 2% | -6% | 1% | 5% | 12% | . | 2.1% | -3%
Nn1c(SCC(=O)NC2CCS(=O)(=O)C2)nnc1-c1cccs1 (stereo not given) | 2% | . | 5% | . | 0% | . | . | 13%

Next entries.
canonical_smiles | 2A StopGo | Marburg entry inh | NS1 function inh | Cruzain inh noDet | SARS PLP yeast | LASV entry inh | Cruzain inh Det | RE007 growth inh
O=C(O/N=C1\CCCc2ccccc21)c1cccs1 | 35%[activator] | 21% | . | . | -4% | -3% | . | -17%
O=C(N/N=C/c1ccc([N+](=O)[O-])o1)C(O)c1ccccc1 (stereo not given) | -4% | . | 0% | . | 0% | . | . | 5%
OC(CCCN1CCCCC1)(c1ccccc1)c1ccccc1 | -20% | ? | -14% | 7%&-2% | -1% | -14% | -0.2%&1.4% | -22%
Cc1cc(C)nc(SCC(=O)Nc2ccc(S(=O)(=O)NCCO)cc2)n1 | 12% | 13% | -3% | 4% | -10% | 1% | 8.3% | -4%
COC(CNS(=O)(=O)c1ccc(S(=O)(=O)NC2CC2)cc1)OC | 7% | . | 10% | . | 17% | . | . | 18%
COc1ccc(OCc2nnc(SCC(=O)N3CCCc4ccccc43)n2-c2ccc(C)cc2)cc1 | -15% | ? | 14% | 3% | 0% | ? | -2.8% | 5%
Cn1c2c(c(=O)n(C)c1=O)C(c1ccc(Cl)cc1)C(C#N)=C(N)O2 (stereo not given) | ? | -3% | 2% | -2% | 8% | -1% | -4.3% | -16%
CCCCCCCCC(=O)N/N=C(\C)c1cccnc1 | -9% | -9% | -5% | -6% | 3% | -3% | -0.9% | 4%
CCOc1cc(NC(=O)c2ccco2)c(OCC)cc1NC(=O)COc1ccccc1C | -9% | ? | 13% | . | . | -22% | . | 5%
COc1cc(NC(=O)c2ccccc2)c(OC)cc1NC(=O)Cc1cccs1 | -20% | -7%[46.1 µM] | 3% | . | -3% | -7%[46.1 µM] | . | 1%
COc1cccc(S(=O)(=O)NCC(=O)Nc2ccc(C(C)(C)C)cc2)c1 | -24% | -2% | -4% | 0% | -5% | ? | -5.1% | -12%
CCOc1ccc(N2CC(C(=O)NC(C)C)CC2=O)cc1 (stereo not given) | 21% | -1% | 2% | -9% | 1% | ? | 1.2% | -2%
CCOc1ccc(NC(=O)Cn2c(=O)n(CCCC(=O)NC3CCN(Cc4ccccc4)CC3)c(=O)c3ccccc32)cc1 | -12% | ? | -7% | . | 0% | -15%[46.1 µM] | . | -2%
CC1CCc2cc(F)ccc2N1C(=O)c1cc2nc(-c3ccco3)cc(C(F)(F)F)n2n1 (stereo not given) | ? | -20%&-20% | -41% | ? | -12% | -8% | -15% | 2%
O=C(c1ccc(Br)o1)N1CCN(c2ncccn2)CC1 | -17% | 1% | -6% | -3% | 5% | 1% | 2.1% | -2%
O=C(CSc1ncn[nH]1)Nc1ccc(OCc2ccccc2)cc1 | 24% | 1%[46.1 µM] | . | . | -1% | 15%[46.1 µM] | . | 15%
O=C(COC(=O)c1cccs1)NCc1cccs1 | 7% | -6%[46.1 µM] | 1% | . | 2% | 25% | . | -15%
COC(=O)c1c(NC(C)=O)sc(C(=O)Nc2ccccc2F)c1C | 35%[activator] | 23%[46.1 µM] | -1% | . | 1% | 16% | . | 1%
COc1ccccc1NC(=O)CN1C(=O)CCSc2ccccc21 | -4% | -2%[46.1 µM] | . | -4% | . | . | -2.4% | .
COCCCNc1nc2c(c(=O)n(Cc3ccc(Cl)cc3)c(=O)n2C)n1C | ? | . | -4% | . | 2% | . | . | 7%
O=C(CCN1C(=O)/C(=C/c2ccc(Cl)cc2)SC1=S)Nc1cccc(C(=O)O)c1 | 0% | -4% | 2% | . | 0% | ? | . | 9%
COCCCNC(=O)CCc1nnc(Cc2ccc(-c3ccccc3)cc2)o1 | -4% | 15%[46.1 µM] | -6% | . | 0% | 3%[46.1 µM] | . | 19%
N[C@@H](CCC(=O)N[C@H](CSN=O)C(=O)NCC(=O)O)C(=O)O | . | ? | 0% | 10% | . | ? | -1.9% | .
O=C(CCS(=O)(=O)Cc1ccccc1)Nc1nc2c(s1)CCCC2 | . | ? | -17% | 3% | 0% | ? | -4.8% | -18%
COc1ccc(Cc2nnc(NC(=O)c3ccc(C)cc3)s2)cc1OC | -15% | 0%[46.1 µM] | 0% | . | -3% | ? | . | 14%
COc1ccc(C)cc1NC(=O)Nc1ccc(C(=O)N2CCCC2)cc1 | 14% | ? | -10% | . | -9% | -19%[46.1 µM] | . | -23%
COc1ccccc1NS(=O)(=O)c1cc(NC(=O)CNC(=O)c2cc(C)cc(C)c2)ccc1C | 3% | ? | 25% | ? | 3% | -14% | -4.0% | -6%

4 entries picked at random from the list so far:
canonical_smiles | 2A StopGo | Marburg entry inh | NS1 function inh | Cruzain inh noDet | SARS PLP yeast | LASV entry inh | Cruzain inh Det | RE007 growth inh
O=C(CSc1ncn[nH]1)Nc1ccc(OCc2ccccc2)cc1 | 24% | 1%[46.1 µM] | . | . | -1% | 15%[46.1 µM] | . | 15%
COC(CNS(=O)(=O)c1ccc(S(=O)(=O)NC2CC2)cc1)OC | 7% | . | 10% | . | 17% | . | . | 18%
COc1cc(NC(=O)c2ccccc2)c(OC)cc1NC(=O)Cc1cccs1 | -20% | -7%[46.1 µM] | 3% | . | -3% | -7%[46.1 µM] | . | 1%
CC1CCc2cc(F)ccc2N1C(=O)c1cc2nc(-c3ccco3)cc(C(F)(F)F)n2n1 (stereo not given) | ? | -20%&-20% | -41% | ? | -12% | -8% | -15% | 2%
